Vaccinia mCherry – inhibitors of vaccinia virus infection (mCherry reporter signal); Potency, µM (doses to about 36.5 µM), for the others: top-dose activity change, negative = inhibition, hits mostly inhibitors; Vaccinia virus mCherry reporter infection, fluorescence; about a quarter of the inactives have no number; AID 720579; hit rate 0.63% among 310,000; active = well fitted inhibition curve with a large enough effect; inconclusive = small, poorly fitted or top-dose-only effect; inactive = no such curve, though single readings can be large or run the other way; tested in A549 cells; note: nearly all actives have a fitted effect of over 35% in size; inactives centre near -10
Vaccinia Venus – vaccinia inhibition (Venus reporter); Vaccinia virus Venus reporter expression, fluorescence; Potency, µM (titrated, usually from 36.5 µM), for inactives: at the highest dose activity change, negative = inhibition, hits mostly inhibitors; hit rate 0.46% among 330,000; active means well fitted inhibition curve with a large enough effect; inconclusive means small, poorly fitted or top-dose-only effect; inactive means no such curve, though single readings can be large or run the other way; tested in A549 cells; note: nearly all actives have a fitted effect of over 30% in size; inactives centre near -10
Starred values were filed as active, the others as inactive; i = inactive; ? = inconclusive; / = not tested or not shown; & = joins results of further samples; [ ] = dose if it differs, or a comment. % is set by controls: 0 for no effect and ±100 for the full control effect; potency is the fitted concentration of half-maximal effect.

The opening four compounds (preview)
SMILES | Vaccinia mCherry | Vaccinia Venus
CCC(=O)c1cc2c(cc1NC(=O)c1ccc(C)cc1)OCCO2 | -1.6% | -7.1%
C(=C\c1ccccc1)/CN1CCN(C(c2cccs2)c2nnnn2C2CCCC2)CC1 (configuration not stated) | -1.5% | -22.3%
Cc1noc(NS(=O)(=O)c2ccc(NC(=O)CCC3CCCC3)cc2)c1C | / | -11.8%
Nc1c(Cl)ncnc1N1CCCC1 | -4.6% | -11.8%

The whole of this part (from the top)
SMILES | Vaccinia mCherry | Vaccinia Venus
CCC(=O)c1cc2c(cc1NC(=O)c1ccc(C)cc1)OCCO2 | -1.6% | -7.1%
C(=C\c1ccccc1)/CN1CCN(C(c2cccs2)c2nnnn2C2CCCC2)CC1 (configuration not stated) | -1.5% | -22.3%
Cc1noc(NS(=O)(=O)c2ccc(NC(=O)CCC3CCCC3)cc2)c1C | / | -11.8%
Nc1c(Cl)ncnc1N1CCCC1 | -4.6% | -11.8%
O=C1CS(=O)(=O)C2(C(=O)N(Cc3ccccc3)c3ccccc32)N1c1ccc(F)c(Cl)c1 (configuration not stated) | -4.8% | 5.8%
Nc1nonc1-c1nc2ccccc2n1Cc1ccc(F)cc1Cl | ? | -28.8%
CC(C)S(=O)(=O)N1CCCC(c2cc(C(=O)Nc3ccc(F)c(Cl)c3)no2)C1 (configuration not stated) | i | -15.6%
COc1ccccc1CNC(=O)CN(C)S(=O)(=O)c1cccc2cccnc12 | -1.0% | -3.3%
COCCCNC(=O)CSc1c2c(nc3ccc(Cl)cc13)CCCC2 | 10.2% | -23.5%&2.0%
CCCCP(=O)(CCCC)c1ccccc1C(=O)O | / | -11.7%
Nc1nc(SC23CC4CC(CC(C4)C2)C3)ns1 | i | -1.5%
Cc1ccc(C(=O)O)cc1NC(=O)c1nsc2ccccc12 | -11.6% | -16.3%
O=C(NC1CCC(O)CC1)c1ccc2c(c1)S(=O)(=O)N=C1CCCCCN12 (configuration not stated) | i | -9.9%
CCN(CC)S(=O)(=O)c1ccc(N2CCCCS2(=O)=O)cc1 | 6.5% | -6.6%
O=C(O)c1ccccc1C(=O)c1ccc(Sc2ccc(Cl)cc2)c([N+](=O)[O-])c1 | i | -9.9%
COCCN(C(=O)CN1CCN(S(=O)(=O)c2ccc(F)cc2)CC1)c1c(N)n(Cc2ccccc2)c(=O)[nH]c1=O | i | -9.7%
Cc1ccc(N2CC(C(=O)Nc3cccnc3)CC2=O)cc1C (configuration not stated) | -13.2% | -4.4%
COc1ccc(OCc2cc(C(=O)NC3CCOCC3)no2)c2ccccc12 | ? | -7.3%
COc1ccccc1N(C)S(=O)(=O)c1ccc(C(=O)OCC(=O)N2CCC2)cc1 | -27.0% | -18.1%
Cc1ccc(C(=O)CSc2nc3ccccc3c(=O)[nH]2)cc1C | 0.9% | -1.3%
Cc1ccsc1C(=O)OCc1nc2ccsc2c(=O)[nH]1 | -20.2% | -2.2%
COc1ccc2c(CC(=O)OCC(=O)Nc3ccc(S(N)(=O)=O)cc3)coc2c1 | -3.7% | 1.0%
CC(=O)n1nc(-c2ccc(C)cc2)nc1NCc1ccco1 | -4.4% | -17.7%
COc1ccccc1N1CCN(CC(=O)NCC2CCCO2)CC1 (configuration not stated) | / | -15.3%
Cc1ccc2[nH]c(=O)c(CN(CC3CCCO3)C(=S)Nc3ccccc3)cc2c1 (configuration not stated) | -29.8% | ?
C=CCN(c1ccccc1)S(=O)(=O)c1cccc(C(=O)Nc2ncccc2C)c1 | -11.9% | -1.1%
Cn1c(COc2ccccc2)nnc1SCC(=O)Nc1ccc(N2CCOCC2)cc1 | -12.3% | -2.3%
CCOc1ccc(CCNC(=O)CSc2cc(=O)n(C)c3cc(Cl)ccc23)cc1OCC | -12.8%&-6.6% | -8.2%&-9.5%
O=C(Nc1cc(F)ccc1F)C1COc2ccccc2C1 (configuration not stated) | -13.7% | -13.3%
CCOC(=O)c1ccccc1NC1c2ccccc2C(=O)N1c1cc(C)ccn1 (configuration not stated) | i | -21.7%
Cc1cccc(CSCCNC(=O)CCSc2ccccc2)c1 | -4.5% | -10.2%
COc1cccc(OCC(=O)NNC(=S)Nc2ccc(Cl)cc2Cl)c1 | -7.8% | -6.7%
O=c1c2ccccc2nc2ccccn12 | -7.9% | -4.6%
COc1ccc(C=NN=C2c3ccccc3-c3ccccc32)cc1O | -13.0% | -24.5%
C[C@H](CO)N1C[C@H](C)[C@H](CN(C)S(=O)(=O)c2ccccc2)OCc2cnnn2CCCC1=O | -1.5% | -12.6%
O=C(NCc1cccnc1)c1ccc(Br)o1 | i | -5.5%
COc1ccc(Cn2c(C(=O)O)c(CNCc3ccccc3F)c3ccc(OC)cc32)cc1 | -11.3% | -7.2%
O=C(COc1ccccc1)N(Cc1nnc(-c2ccccc2Cl)o1)C1CC1 | -21.7% | -18.4%
COc1ccc(C2N=C(Nc3ccc(C)cc3)Nc3nc(C)cc(=O)n32)cc1 (configuration not stated) | -27.0% | ?
CCOc1ccc(S(=O)(=O)N2CCC(C(=O)NCc3cccnc3)CC2)cc1C | -19.5% | -9.7%
O=[N+]([O-])c1ccc(/C=N/Nc2nc(-c3ccccc3)c3cc(Br)ccc3n2)o1 | -13.5% | -7.3%
C[C@H](NC(=O)c1ncn2c1C(=O)N[C@@H](C)C2)C(=O)OC(C)(C)C | i | -5.9%
CN(Cc1cccc(-c2ccncc2)c1)C(=O)Oc1ccc([N+](=O)[O-])cc1 | 14.9% | -16.2%
CCCS(=O)(=O)NC(=O)C1(C)CCCN(C(=O)c2cncc(Br)c2)C1 (configuration not stated) | 9.2% | 6.4%
C/C(=N\NC(=S)Nc1ccc(C)cc1)c1cccc(N)c1 | -12.6% | -13.8%

Looked up one by one from the list above, 5 records:
SMILES | Vaccinia mCherry | Vaccinia Venus
COc1cccc(OCC(=O)NNC(=S)Nc2ccc(Cl)cc2Cl)c1 | -7.8% | -6.7%
O=C(NCc1cccnc1)c1ccc(Br)o1 | i | -5.5%
CCOc1ccc(CCNC(=O)CSc2cc(=O)n(C)c3cc(Cl)ccc23)cc1OCC | -12.8%&-6.6% | -8.2%&-9.5%
Cc1ccc(N2CC(C(=O)Nc3cccnc3)CC2=O)cc1C (configuration not stated) | -13.2% | -4.4%
C[C@H](NC(=O)c1ncn2c1C(=O)N[C@@H](C)C2)C(=O)OC(C)(C)C | i | -5.9%

Following part.
SMILES | Vaccinia mCherry | Vaccinia Venus
CC1CCCC(NS(=O)(=O)c2cccc3nsnc23)C1C (configuration not stated) | -1.2% | -15.3%
CNC(=O)c1cc2ncc(C(F)(F)F)cc2s1 | i | -8.2%
NC(=O)NC(=O)COC(=O)CCCSc1nc2ccccc2s1 | -3.3% | 0.0%
CC(OC(=O)C1=COCCO1)C(=O)NC1CCCC(C)C1C (configuration not stated) | -18.9% | 0.5%
COc1ccc(-c2cnc(SCCNC(=O)c3ccc4c(c3)OCO4)[nH]2)cc1 | -6.8% | -19.2%
Cn1nnnc1SCC(=O)NCCc1ccc(Cl)cc1 | / | -12.6%
COc1ccccc1N(C(=O)c1snc(C(N)=O)c1N)C(C(=O)NCc1ccccc1)c1ccc(O)cc1 (configuration not stated) | -14.1% | 3.7%
O=C(COC(=O)c1ccc(F)c([N+](=O)[O-])c1)NC(=O)NCc1ccccc1 | -1.6% | -18.2%
COc1ccc(CNC(=O)CSc2nnc(NC(=O)C3CC3)s2)cc1 | -8.7% | 7.1%
CCOC(=O)[C@]12CCCC=C1N(Cc1ccc(Cl)cc1Cl)C(=O)[C@H](CC(=O)N1CCN(C(=O)C3CC3)CC1)C2 | -23.2% | -12.1%
COC(=O)c1scc(-c2ccc(C)cc2)c1S(=O)(=O)Nc1ccc(NC(C)=O)cc1 | -12.1% | -9.8%
CC(=O)Nc1ccc(NC(=O)c2ccccc2S(=O)(=O)c2ccccc2[N+](=O)[O-])cc1 | -15.4% | -7.9%
O=C1CSC(=S)N1Cc1cccs1 | 73.2%[activator] | 174.6%[activator]
Cc1ccc(OCc2nnc(SC(C)C(=O)O)n2Cc2ccccc2)cc1 (configuration not stated) | 7.9% | 2.9%
CN(CC1CCCO1)S(=O)(=O)c1ccc(C(=O)Nc2ccc([N+](=O)[O-])cc2)cc1 (configuration not stated) | ? | -24.6%
O=C(NCc1ccccc1Cl)C1CCN(S(=O)(=O)c2ccc3c(c2)CCCN3C(=O)C2CCC2)CC1 | -18.0% | -18.7%
O=C1/C(=C\c2cccnc2)CN(Cc2ccccc2)C/C1=C\c1cccnc1 | -15.4% | -8.4%
COC(=O)C(C)Sc1nc2c([nH]c3ccccc32)c(=O)n1-c1ccc(OC)cc1 (configuration not stated) | 3.7% | -2.0%
C/C(CC(=O)NC12CC3CC(CC(C3)C1)C2)=N\NC(=O)Cc1cccs1 | i | -7.7%
CC(C)CC(OC(=O)c1ccco1)C(=O)NC1CCCCC1 (configuration not stated) | i | -15.9%
O=C1CC(c2ccco2)Cc2nc(Nc3nc(-c4ccccc4)c4ccccc4n3)ncc21 (configuration not stated) | -8.3% | 0.0%
CC(C)C(NC(=S)Nc1ccccc1)C(=O)O (configuration not stated) | -12.2% | -3.8%
CCN1CCN(S(=O)(=O)c2cccc3nsnc23)CC1 | -12.8% | -6.5%
Cc1ccc(-n2ccnc(SCC(=O)NC3CCCC3)c2=O)cc1F | -13.3% | -12.0%
COc1cc2c(cc1OC)C(c1cc3cc(C)ccc3[nH]c1=O)N(C(=O)c1ccco1)CC2 (configuration not stated) | -3.1% | 1.7%
CCc1nc2ccc(C(=O)N3CCCC(C(N)=O)C3)cn2c1N(CCC(C)C)CCN(C)C (configuration not stated) | 0.0% | 0.4%
Cc1c(CCNS(=O)(=O)c2ccccc2)sc2nc(-c3ccc(Cl)cc3)nn12 | ? | ?
CCOC(=O)c1nc(N2CCN(C(=O)OCC)CC2)c2c3c(sc2n1)CCCC3 | i | -5.6%
Cc1cc(=O)n2c3c(c4c(cc13)c(CN(C)C)cc(=O)n4C)OC2 | 13.3% | -5.6%
c1ccc2c(c1)[nH]c1c(N3CCOCC3)ncnc12 | ? | -22.6%
COC(=O)c1c(C)oc(C)c1S(=O)(=O)NCC1CC1 | -13.2% | -7.2%
Cc1cc(C2C(C#N)=C(N)Oc3n[nH]c(C)c32)c(C)s1 (configuration not stated) | / | -26.8%
CCOC(=O)Cn1c2c(c(=N)c3ccccc31)CCC2 | / | -8.5%
Cc1ccc(-n2c(/C=C/c3cc(Br)cs3)nc3ccccc3c2=O)cc1 | -20.4% | -18.3%
Cc1cc(C)cc(C(=O)NCC(=O)OCC(=O)c2cc(C)n(CC(F)(F)F)c2C)c1 | i | -9.7%
COc1ccccc1N(C)S(=O)(=O)c1ccc(C)c(C(=O)Nc2nccs2)c1 | -4.6% | -13.8%
CC1=CC(C)(C)N(C(=O)CNC2CCCCC2)c2cc(C)ccc21 | -17.2% | -15.1%
O=C(NC(=S)NCCCN1CCOCC1)c1ccc([N+](=O)[O-])cc1 | -12.7% | 12.2%
Nc1c(Cl)ncnc1NCc1cccnc1 | i | 1.9%
Cc1ccc(-n2c(-c3ccco3)n[nH]c2=S)cc1 | i | -6.5%
Cc1nc2cc(-c3cccs3)[nH]n2c(=O)c1C | -22.4% | -5.4%
CN(C)c1nc(Nc2ccc(Cl)cc2)nc(OCC#N)n1 | ? | -27.0%
COc1ccc2c(c1)Cc1cc(NC(=O)c3ccccc3-c3ccccc3C(=O)O)ccc1-2 | i | -8.7%
Cc1noc(C)c1NC(=O)Nc1ccc2c(c1)C(=O)N([C@H](C)CO)C[C@H](C)[C@@H](CN(C)S(=O)(=O)c1ccc(F)cc1)O2 | i | -7.1%
CC(C)(C)OC(=O)N1CCN(C(=O)c2[nH]cnc2C(=O)Nc2ccc(Cl)cc2)CC1 | -17.0% | ?
CCCc1cc(=O)[nH]c(Nc2cc(Cl)cc(Cl)c2)n1 | ? | ?
CCC(=O)Nc1ccc(Oc2ccc3c(c2)C(=O)NC3=O)cc1 | ? | -15.5%
CC1CCN(S(=O)(=O)c2ccc3c(c2)C(Cl)(Cl)C(=O)N3)CC1 | -27.4% | -25.3%
F[B-](F)(F)c1cc2cc(Br)ccc2s1 | 1.9% | -5.9%
COc1ccc(C2CC(=O)N(CC(=O)Nc3ccc(C(F)(F)F)cc3)c3ccccc3S2)cc1 (configuration not stated) | -19.5% | -12.9%
CCOC(=O)C1=CCC2C(=O)N(C3CCCCC3)C(=O)C12 (configuration not stated) | -2.7% | -9.1%
Cc1cc(C)c(C(=O)COC(=O)Cn2c(C)csc2=O)cc1C | -8.8% | -23.1%
OC[C@H]1O[C@@H](n2cnc3c(NC4CCCC4)nc(Cl)nc32)[C@H](O)[C@@H]1O | -0.5%&-14.7% | -12.6%&-10.7%
O=C(Nc1ccc(N2CCN(C(=O)c3cccs3)CC2)cc1)c1cccc(F)c1 | ? | -22.3%
Cc1ccc(SSc2cc(C)ccc2N)c(N)c1 | -7.9% | -11.5%
Cc1cc(C)cc(N(CC(=O)NC2CCCCC2)C(=O)CNC(=O)c2ccco2)c1 | -11.1% | -2.3%
Cc1ccc(C)c(C(C)NC(=O)Cc2cccs2)c1 (configuration not stated) | -13.9% | -16.5%
Cc1ccc(-c2nn(C)c(=O)c3ccccc23)cc1CNC(=O)CN1CCOCC1 | / | -4.6%
CCCN1C(=O)/C(=N\OCC(=O)NC23CC4CC(CC(C4)C2)C3)c2ccccc21 | -7.3% | -7.9%
CCN(CC)CC(=O)c1c(C)n(C)c2ccc(OC)cc12 | -5.4% | -11.6%
CCCCS(=O)Cc1ccccc1 (configuration not stated) | / | -10.8%

Screens (PubChem BioAssay)
